Screening data: PubChem BioAssay, National Center for Advancing Translational Sciences (NCATS)
Rango complex inh: qHTS Assay for Inhibitors of Rango (Ran-regulated importin-beta cargo) - Importin beta complex formation; Importin subunit beta-1 (Homo sapiens), Q14974; Rango CFP/YFP FRET sensor + importin beta, 45 min; Potency, µM (titrated, usually from 92.2 µM), for the others: at the highest dose inhibition of complex formation; 340,000 tested, 0.031% active; AID 540263, 2011; active = rising FRET ratio curve, often small or poorly fitted; inconclusive = mostly compound fluorescence or quenching in the first reads; inactive = flat curves in all reads;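 further: potency means the concentration at half of the fitted maximal effect; 0% = DMSO wells and 100% = buffer wells lacking importin beta; nearly all actives have a fitted effect of over 15% in size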
Target sequence (Q14974 whole entry, looked up): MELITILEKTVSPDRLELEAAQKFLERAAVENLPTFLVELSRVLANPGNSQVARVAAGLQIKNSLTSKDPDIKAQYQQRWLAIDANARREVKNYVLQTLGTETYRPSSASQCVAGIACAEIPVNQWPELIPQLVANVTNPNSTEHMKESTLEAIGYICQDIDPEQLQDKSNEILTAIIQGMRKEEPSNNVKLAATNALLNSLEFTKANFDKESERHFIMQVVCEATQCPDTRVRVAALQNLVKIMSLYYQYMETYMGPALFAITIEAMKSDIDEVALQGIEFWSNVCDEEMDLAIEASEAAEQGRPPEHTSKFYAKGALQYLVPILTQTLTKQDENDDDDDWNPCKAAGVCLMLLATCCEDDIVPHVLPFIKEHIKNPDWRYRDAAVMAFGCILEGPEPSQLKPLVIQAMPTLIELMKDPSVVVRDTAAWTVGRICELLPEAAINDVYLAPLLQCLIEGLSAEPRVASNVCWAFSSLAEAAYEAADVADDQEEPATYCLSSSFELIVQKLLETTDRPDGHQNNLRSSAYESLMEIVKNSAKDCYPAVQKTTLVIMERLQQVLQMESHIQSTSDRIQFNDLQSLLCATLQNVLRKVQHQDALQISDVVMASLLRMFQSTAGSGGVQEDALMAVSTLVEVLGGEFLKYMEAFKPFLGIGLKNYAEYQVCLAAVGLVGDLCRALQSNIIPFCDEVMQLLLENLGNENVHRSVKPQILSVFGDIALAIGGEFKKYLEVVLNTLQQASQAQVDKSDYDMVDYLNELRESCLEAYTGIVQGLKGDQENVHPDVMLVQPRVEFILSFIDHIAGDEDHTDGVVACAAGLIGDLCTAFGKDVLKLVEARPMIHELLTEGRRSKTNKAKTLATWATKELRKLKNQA
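FRET biosensor (snurportin 1 IBB flanked by EYFP and cerulean), 50 nM, with compound 5 min, then 0.125 microM importin beta in PBS, 1 mM DTT, 0.02% Tween-20, 0.1% BSA. CFP/YFP ratio read after 45 min at room temperature; pre-read flags interference.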
Rango release inh: qHTS Assay for Inhibitors of RanGTP induced Rango (Ran-regulated importin-beta cargo) - Importin beta complex dissociation; 340,000 tested, 0.071% active; Potency, µM (top dose mostly 46.1 µM), without a hit: at the top dose activity change, negative = inhibition; Biochemical FRET Rango-importin beta, RanGTP-induced dissociation; Snurportin-1 (Homo sapiens) + GTP-binding nuclear protein Ran (Homo sapiens) + Importin …; active means falling FRET ratio curve, often poorly fitted, with flat reads before Ran was added; inconclusive means other falling curves, or compound fluorescence or quenching; inactive means flat or rising ratio curve;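 further: potency means the concentration at half of the fitted maximal effect; % of control where 0% means no effect; nearly all actives have a fitted effect of over 45% in size; -100% = wells without RanGTP and RCC1; the record marks most hits as doubtful in a second field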
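Quantitative HTS using a FRET biosensor: 0.1 uM Rango, 0.25 uM importin beta, 0.6 uM Ran, 2 mM GTP, 0.2 uM RCC1 final, PBS with DTT, Tween-20 and BSA. Post-read taken 45 min after Ran addition.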
GLA inh pH 4.5: qHTS Assay for Inhibitors of Human alpha-Galactosidase at pH 4.5 | Alpha-galactosidase A (Homo sapiens), P06280 | purified enzyme, 4-MU-alpha-Gal fluorescence, pH 4.5 | activity change, negative = inhibition, % at 105 µM | 230,000 tested, under 10 active | AID 1467, 2008; inconclusive = small, poorly fitted or top-dose-only inhibition, or a rising curve; inactive = flat fitted curve, though single readings scatter; no compound was filed as active;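 further: 0% = full activity with enzyme and -100% = basal without enzyme; dose as in the result columns while the protocol names 77 µM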
miR-21 reporter: qHTS Assay for Modulators of miRNAs and/orActivators of miR-21. HeLa miR-21 FLuc reporter, luciferase, 48 h. Potency, µM (highest dose often 38.3 µM), for the others: at the top dose reporter change, positive = more light. 340,000 tested, under 10 active. AID 2288, 2010; active = well fitted rising curve with a large enough effect; inconclusive = small, poorly fitted or top-dose-only effect; inactive = no such curve, though single readings can be large or run the other way;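 further: % of control where 0% means no effect; miR-21 action dims this reporter so a rising signal means less miR-21 action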
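HeLa cells endogenously expressing miR-21, stably carrying CMV-driven firefly luciferase with a downstream miR-21 binding site, 2000 cells/well. Titrations up to approximately 40 uM, 48 hours; luciferase luminescence read.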
Starred values were filed as active, the others as inactive; ? = inconclusive; . = no result given; [ ] = remark or other dose.

SMILES | Rango complex inh | Rango release inh | GLA inh pH 4.5 | miR-21 reporter
NC(=O)c1ccccc1Nc1nc(NCCO)nc(N2CCCC2)n1 | -1.1% | -5% | . | .
NNC(=O)CN1CCN(c2ncc(C(F)(F)F)cc2Cl)CC1 | -3.2% | 20% | -3 | 12%
Cc1ccccc1-n1cc(CNCc2c(C(=O)N(C)C)nc3ccc(Cl)cn23)cn1 | -2.5% | 22% | 3 | -3%
Cc1c(C(=O)O)oc2c1C(O)CCC2 (stereo unspecified) | -1.0% | 9% | -5 | 0%
O=C(NCc1cccnc1)C(=O)NC1CCCCC1 | 1.7% | 1% | 2 | -12%
O=C(N/N=C/c1sc(N2CCOCC2)nc1-c1ccccc1)c1ccccc1Cl | -0.2% | -8% | -9 | 0%
Cc1ccc(C2CC(C(F)(F)F)n3nc(C(=O)NCc4ccco4)cc3N2)cc1 (stereo unspecified) | -0.8% | -5% | 7 | 3%
O=C(O)c1ccc2c(c1)OCCOCCOCCOCCOCCO2 | 1.0% | 2% | . | 1%
O=C(Nc1cccnc1)c1ccc2c(c1)C(=O)N(Cc1cccnc1)C2=O | -5.0% | -8% | -1 | -5%
Cc1ccc2c(c1)NC(=O)[C@@]1(C)[C@@H](c3ccccc3)[C@H]3COc4ccccc4[C@@H]3N1C2=O | -1.3% | -6% | . | .
CC(OC(=O)Cc1c(F)cccc1Cl)C(=O)NC1(C#N)CCCCC1 (stereo unspecified) | 3.7% | -19% | . | .
CCN(CC)CCN(C)c1ccc(N2C(=O)C3CC=CCC3C2=O)cc1[N+](=O)[O-] (stereo unspecified) | 2.9% | -3% | -3[21.1 µM] | 1%
CCCCN1C[C@H](Cc2ccccc2)[C@@H](CC(=O)NCc2ccc(OC)cc2)C1=O | 0.2% | -6% | . | -1%
CC(C)CN(C1CCS(=O)(=O)C1)S(=O)(=O)c1ccc2ccccc2c1 (stereo unspecified) | 0.0% | 4% | . | .
O=C(COC(=O)c1cccc(Cl)c1)Nc1cc(Cl)ccc1Oc1ccccc1 | 0.0% | -15% | -8 | -1%
CCC(CC)NC(=O)CN1CCN(S(=O)(=O)c2cccs2)CC1 | 3.4% | -8% | . | .
Clc1cccc(-c2ccc(C=Nc3ccc(N4CCOCC4)cc3)o2)c1 | ? | -6% | -4 | -2%
Cn1c(SCC(=O)c2ccccc2)ncc(C(=O)Nc2ccccc2)c1=O | -4.3% | -1% | . | .
CCOc1cc(C=C(C#N)C#N)ccc1Oc1ccc([N+](=O)[O-])cn1 | -3.7% | -21% | 4 | 2%
CCc1ccc(/C=C2/SC(=S)N(CC(=O)Nc3nc4ccccc4s3)C2=O)cc1 | ? | ? | -10 | -33%
CC(C)OC(=O)CCC1(C(=O)O)CCC(=O)NC1 (stereo unspecified) | 5.0% | -4% | 2 | 0%
Nc1nc(N2CCN(C(=O)c3ccco3)CC2)nc2ccc(Br)cc12 | 6.9% | 18% | -4 | -12%
COc1ccc(CCN(C)Cc2c(O)ccc3cc(Br)ccc23)cc1OC | 4.3% | 13% | . | 0%
CC(=O)c1ccccc1NS(=O)(=O)c1c(C)nn(-c2ccccc2)c1C | -0.5% | 3% | 7 | 8%
COc1cc(OC)cc(C(=O)NCCNC(=O)c2ccccn2)c1 | -0.4% | 9% | . | 2%
COc1ccc(C2=NS(=O)(=O)N(C)C(C(=O)NCc3ccc4c(c3)OCO4)=C2)cc1 | 0.8% | 20% | . | -1%
O=[N+]([O-])c1cccc(NN=Nc2ccccc2)c1 | -4.3% | -9% | . | -48%
Cc1ccc(C)c(NC(=O)CSc2ccc(S(=O)(=O)N3CCCC3)cn2)c1 | -0.5% | 9% | . | .
CCOCCCNC(=S)NCCNc1nc2c(C)cccc2cc1C#N | ? | ? | 3 | 15%
O=C(Nc1cc(S(=O)(=O)N2CCOCC2)ccc1N1CCCC1)c1ccc(Cl)cc1 | ? | -23% | . | .
Cc1ccccc1N1CCN(S(=O)(=O)c2nnc(NC(=O)c3ccco3)s2)CC1 | -1.9% | 4% | . | 2%
C/C(=N\Oc1cccc(F)n1)c1ccc(Cl)cc1Cl | 0.3% | 4% | 4 | -10%
O=C(CCS(=O)(=O)Cc1ccccc1F)NCCCN1CCCCC1 | 0.1% | 13% | 9 | 0%
Fc1ccc(-n2nnc(-c3ccccc3Cl)n2)cc1 | 4.9% | -18% | . | 0%
COc1ccc(-c2csc(-n3cccn3)n2)cc1 | -2.5% | 2% | . | -52%
O=C(NCCN1CCCCC1)c1ccc(/C=N/O)nc1 | 2.0% | 9% | . | -3%
CCCc1nccn1S(=O)(=O)c1cc(OC)ccc1OC | -8.5% | -12% | 1 | -1%
Cc1ccc(S(=O)(=O)N2CCC(C(=O)NNC(=O)c3ccccc3)CC2)cc1 | 0.7% | 13% | -2 | 2%
CCc1ccc(OCC(=O)Nc2nnc(C3CCCC3)s2)cc1 | -1.1% | -8% | . | -1%
Cn1c(CNC(=O)c2ccco2)nnc1SCC(=O)Nc1ccc(Cl)cc1 | 0.6% | 2% | . | .
O=C(Nc1cc2c3c(c1)CC(=O)N3CCC2)c1ccc(F)cc1 | 0.7% | -12% | . | .
O=C(CNCC1CCCO1)Nc1ccc(N2CCCCCC2)cc1 (stereo unspecified) | 0.7% | 1% | -20 | -11%
COc1cc(/C=C2\CC/C(=C\c3ccc(OCCO)c(OC)c3)C2=O)ccc1OCCO | ? | ? | -25 | -7%
Cc1nc2ccc(OC(=O)c3ccccc3)cc2s1 | 1.8% | -10% | . | -7%
CC(C)NC(=O)c1ccc(-c2cccc(C(F)(F)F)c2)o1 | 2.9% | -13% | -21 | -13%
CC(O)CNc1nc(Cl)c(C#N)s1 (stereo unspecified) | 1.5% | -9% | -11 | -1%
COC(=O)c1cc2c(C)nn(C)c2s1 | 0.1% | -15% | -11 | -2%
CC(=O)Nc1ccc(NC(=O)c2ccc(NS(=O)(=O)c3cc(C(C)(C)C)cc(C)c3C)cc2)cc1 | 1.7% | 3% | 1 | -1%
Cc1c(C)c2c(OCC(=O)Nc3cccnc3)cc3c(c2oc1=O)CCC(C)(C)O3 | -3.1% | 1% | . | 1%
Cc1cn(S(=O)(=O)c2ccccc2[N+](=O)[O-])cn1 | 0.7% | 3% | -7 | 2%
CN1CCN(c2nc3c(c(=O)[nH]c(=O)n3C)n2Cc2ccc([N+](=O)[O-])cc2)CC1 | 0.4% | -8% | . | -8%
CCS(=O)(=O)c1ncc(Cl)c(C(=O)Nc2ccc(S(=O)(=O)N3CCCC(C)C3)cc2)n1 (stereo unspecified) | -2.2% | 0% | . | ?
Cc1cccc(N(C)S(=O)(=O)c2ccc3c(c2)CCC(=O)N3)c1 | -2.9% | -17% | 10 | -3%
Cc1cc(C)c2c(C)c(C(=O)NCc3ccncc3)oc2c1 | -1.6% | -5% | -2 | -7%
COc1ccc(-n2ncc3c(N4CCC(C(N)=O)CC4)ncnc32)cc1 | -2.1% | 4% | -9 | -46%
O=[N+]([O-])c1ccc(N2CCN(S(=O)(=O)c3ccc(Cl)cc3)CC2)cc1NCc1cccnc1 | 0.4% | 28% | -7 | -5%
COC(=O)c1[nH]c(C)c(/C(O)=C2\C(=O)C(=O)N(CCN3CCOCC3)C2c2ccc(C)o2)c1C (stereo unspecified) | 1.6% | -3% | -6 | -2%
CCOC(=O)C1=C(C)NC(=O)NC1c1ccc(N2CCC(c3ccccc3)=N2)cc1 (stereo unspecified) | ? | -45% | 21 | -19%
CC1(C)Cc2ccccc2-c2c1c(=O)n(Cc1ccccc1)c1nnnn21 | 0.9% | 1% | -10 | -2%
CCOC(=O)/C(=C/c1ccc(OC(F)F)cc1)C1=Nn2c(nnc2-c2ccc(Cl)cc2)SC1 | 4.5% | 1% | . | .

Remaining list, next part
SMILES | Rango complex inh | Rango release inh | GLA inh pH 4.5 | miR-21 reporter
COc1ccccc1N1CCN(c2cc(=O)n(-c3ccccc3Cl)c(=O)[nH]2)CC1 | 1.7% | 14% | -3 | 1%
CS(=O)(=O)N(Cc1ccc(C(=O)NN=C2CCCCCC2)cc1)c1ccccc1 | -0.1% | -11% | -23 | 8%
CNc1c(NC(=O)COc2ccc(Cl)cc2)c(=O)oc2ccccc12 | 0.1% | 0% | . | -5%
Cc1ccc(NCc2nnc(SCC(=O)c3ccccc3)o2)c(C)c1 | -2.8% | 1% | 6 | -9%
COc1ccc(CCN2C(=NC(=O)CCC(=O)O)SC3CS(=O)(=O)CC32)cc1OC (stereo unspecified) | -0.7% | -21% | -2 | 3%
CCOC(=O)c1[nH]c(COC(=O)CCOc2ccccc2OC)c(C(=O)OCC)c1C | -1.4% | 7% | 15 | -2%
CCOC(=O)C1CCCN(CC(=O)c2c[nH]c3ccc(C)cc23)C1 (stereo unspecified) | -0.2% | -18% | -2 | -2%
CCCCC(c1nnnn1Cc1ccco1)N1CCN(C(=O)c2ccco2)CC1 (stereo unspecified) | 0.6% | -18% | -6 | -6%
COc1ccc(Cc2nnc(NC(=O)c3c(-c4ccccc4)noc3C)s2)cc1 | 0.5% | -16% | -5 | 5%
Cc1ccc(/C=N/NC(=O)NC2CCCCC2)o1 | 0.4% | -12% | 4 | -48%
Cc1ccnc(SCCn2c(N3CC(C)CC(C)C3)nc3c2c(=O)n(C)c(=O)n3C)n1 (stereo unspecified) | -3.4% | 7% | 3 | -6%
CCS(=O)(=O)c1ccc2oc(Nc3ccc(OC)c(OC)c3)nc2c1 | -0.6% | 6% | . | -26%
COc1ccc(NC(=O)CSc2nnc(C3CC3)n2C)cc1 | ? | 0% | -10 | 0%
COc1ccc(CN(C)C(=O)C2CCN(S(=O)(=O)c3cccs3)CC2)cc1F | -10% | 0% | . | .
CNc1ccc(S(=O)(=O)NCC(=O)NCCCc2ccccc2)cc1[N+](=O)[O-] | 4.6% | 1% | . | -12%
N#C/C(=C\c1ccncc1)c1ccc(NC(N)=O)cc1 | ? | -26% | . | -9%
CCC(CC)c1nc(NCCC(=O)O)c2ccccc2n1 | 1.1% | -2% | 4 | -1%
O=S1(=O)CC2N=C(N(Cc3ccc(F)cc3Cl)c3ccccc3F)SC2C1 (stereo unspecified) | -1.7% | -6% | 1 | -4%
CN(C)c1nnnn1-c1ccc(OC(F)(F)F)cc1 | 2.2% | 8% | 4 | 0%
CCC(=O)c1ccc(OCC(=O)Nc2ccc(S(=O)(=O)Nc3cc(C)nc(C)n3)cc2)cc1 | 0.2% | 20% | . | .

Part of the list above, as labelled records.
CCCCC(c1nnnn1Cc1ccco1)N1CCN(C(=O)c2ccco2)CC1 (stereo unspecified)
  Rango complex inh: 0.6% | Rango release inh: -18% | GLA inh pH 4.5: -6 | miR-21 reporter: -6%
COc1ccc(Cc2nnc(NC(=O)c3c(-c4ccccc4)noc3C)s2)cc1
  Rango complex inh: 0.5% | Rango release inh: -16% | GLA inh pH 4.5: -5 | miR-21 reporter: 5%
CNc1ccc(S(=O)(=O)NCC(=O)NCCCc2ccccc2)cc1[N+](=O)[O-]
  Rango complex inh: 4.6% | Rango release inh: 1% | GLA inh pH 4.5: . | miR-21 reporter: -12%

(next part)
SMILES | Rango complex inh | Rango release inh | GLA inh pH 4.5 | miR-21 reporter
CCOc1ccc(OCC(=O)N2CCOCC2)cc1 | -0.1% | -4% | 3 | -9%
O=C(Nc1ccccc1)Nc1ccccc1 | -1.5% | -13% | 10 | .
Cc1cccc(C2c3[nH]c4ccccc4c3CCN2C(=O)c2cc(C(C)C)nc(N)n2)n1 (stereo unspecified) | -1.2% | -8% | 13 | -1%
ON=C1c2ccccc2-c2ccc(F)cc21 | 6.1% | 1% | . | .
C[C@H](CCC(=O)O)[C@H]1CC[C@H]2[C@@H]3CC[C@@H]4C[C@H](O)CC[C@]4(C)[C@H]3CC[C@]12C | -0.9% | 3% | -6 | .
CC1CCCCN1CCNC(=O)C1CCN(S(=O)(=O)N2CCCCC2)CC1 (stereo unspecified) | -0.1% | -15% | -2 | -3%

A portion of the library. The share of hits here may be higher or lower than overall.
